Assay outcomes as filed in PubChem BioAssay.
Lassa entry inh = blocks Lassa virus binding to or entry into cells; Lassa virus pseudotype entry inhibition, cell reporter; control for the full effect not named in the record; Potency, µM (doses to about 37.9 µM), for inactives: at the highest dose activity change, negative = inhibition, hits mostly inhibitors; hit rate 1.2% among 300,000; AID 540256; active means well fitted inhibition curve with a large enough effect; inconclusive means small, poorly fitted or top-dose-only effect, or effect the other way; inactive means flat fitted curve, though single readings scatter; tested in HEK293 cells; further: on the % scale 0 is the no-effect control and ±100 the full control effect; nearly all actives have a fitted effect of over 50% in size; luciferase read-out
Cruzain noTriton = blocks cruzain activity in detergent-free assay; purified cruzain, Z-FR-AMC fluorescence, no detergent; Potency, µM, inactives show max response, negative = inhibition, most hits filed as inhibitors; hit rate 2.3% among 200,000; AID 1476; active means well fitted curve in the direction sought with a large enough effect; inconclusive means small, poorly fitted or top-dose-only effect, or another doubt; inactive means no such curve, though single readings can be large; an effect the other way counts as inactive or inconclusive;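 further: plate controls were enzyme without inhibitor for no effect and buffer without enzyme for full effect; nearly all actives have a fitted effect of over 40% in size; top concentration of the series not given in the record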
Target sequence (P25779 123-467 limits assumed): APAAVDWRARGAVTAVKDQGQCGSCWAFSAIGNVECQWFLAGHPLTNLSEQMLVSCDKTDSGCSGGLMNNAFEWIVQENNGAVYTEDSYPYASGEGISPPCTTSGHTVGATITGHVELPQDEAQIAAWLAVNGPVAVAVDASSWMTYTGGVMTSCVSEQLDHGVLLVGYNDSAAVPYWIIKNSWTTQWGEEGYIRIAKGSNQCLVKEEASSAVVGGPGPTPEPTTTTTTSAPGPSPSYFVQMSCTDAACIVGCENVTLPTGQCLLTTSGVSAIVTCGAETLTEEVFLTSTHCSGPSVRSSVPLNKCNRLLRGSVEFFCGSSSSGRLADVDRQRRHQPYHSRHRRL
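Detergent-free condition (0.00005% Triton X-100) in acetate buffer pH 5.5 with DTT. 1.5 nM enzyme and compound were pre-mixed 15 min, then 2 uM Z-FR-AMC substrate added; reaction progress from fluorescence change between first and third reads (60 s).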
NS1 function inh = blocks influenza NS1 protein function; S. cerevisiae slowed by influenza A NS1, growth recovery by OD600; Potency, µM (titrated, usually from 46.1 µM), without a hit: at the top dose activity, positive = more growth; hit rate 0.4% among 270,000; AID 2326; further: actives are rising curves; nearly all actives have a fitted effect of over 50% in size
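A cell-based growth assay was used: compounds that relieve NS1-induced slow growth of budding yeast raise OD600. Assay medium was yeast nitrogen base with ammonium sulphate and -URA supplement, pH 6.0, with 2% galactose.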
Cruzain Triton = blocks cruzain activity in presence of Triton detergent. P25779. purified cruzain, Z-FR-AMC fluorescence, 0.01% Triton. Potency, µM, without a hit: max response, negative = inhibition, hits mostly inhibitors. hit rate 0.43% among 200,000. AID 1478; active means well fitted curve in the direction sought with a large enough effect; inconclusive means small, poorly fitted or top-dose-only effect, or another doubt; inactive means no such curve, though single readings can be large; an effect the other way counts as inactive or inconclusive;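 further: plate controls were neutral wells for no effect and buffer without enzyme for full effect; nearly all actives have a fitted effect of over 40% in size; top concentration of the series not given in the record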
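Enzyme 1.5 nM, Z-FR-AMC 2 uM, NaOAc 100 mM pH 5.5, DTT 5 mM, Triton X-100 0.01%; 15 min RT compound preincubation; kinetic ex360/em450, 60 s delta.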
MARV entry inh = inhibitors of Marburg virus binding or cell entry. Potency, µM (series often up to 37.8 µM), for inactives: top-dose activity change, negative = inhibition, usual class: inhibitors. Marburg virus pseudotyped entry inhibition, cell reporter; control for the full effect not named in the record; about a third of the inactives were read at about 46 µM. hit rate 1.8% among 300,000. AID 540276; active = well fitted inhibition curve with a large enough effect; inconclusive = small, poorly fitted or top-dose-only effect, or effect the other way; inactive = flat fitted curve, though single readings scatter; tested in HEK293 cells; about a fifth of its hits are not listed in these tables; further: on the % scale 0 is the no-effect control and ±100 the full control effect; luciferase read-out
SARS PLP yeast = SARS-CoV PLP inhibition in yeast | S. cerevisiae expressing SARS-CoV PLpro, growth rescue; control for the full effect not named in the record | Potency, µM (series often up to 32.9 µM), without a hit: at the top dose activity, positive = growth rescue | hit rate 0.19% among 330,000 | AID 485353; further: 0% is about no effect; nearly all actives have a fitted effect of over 55% in size; growth read by luminescence after 48 h
RE007 growth inh = less growth of the S. pombe RE007 Vpr strain | Potency, µM (highest dose often 92.2 µM), inactives show at the highest dose activity change, negative = less growth | S. pombe RE007 Vpr strain, BacTiter-Glo ATP luminescence, 24 h; control for the full effect not named in the record | hit rate 0.21% among 360,000 | AID 651644; active = well fitted falling curve with a large enough effect; inconclusive = small, poorly fitted or top-dose-only effect; inactive = no such curve, though single readings can be large or run the other way;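 further: on the % scale 0 is the no-effect control and ±100 the full control effect; nearly all actives have a fitted effect of over 50% in size; the assay follows cell death caused by Vpr and the record does not say whether a fall means rescue or toxicity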
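Fission yeast strain RE007, carrying one chromosomally integrated HIV-1 vpr copy, was seeded at OD 0.01 in PMG+AL medium with 23 nL pinned compound. After 24 h at 30 °C and 99% humidity, viability was read by BacTiter-Glo luminescence.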
StopGo reporter = lowers the luciferase signal of an FMDV 2A StopGo reporter | human cells with a luciferase reporter of 2A StopGo recoding; control for the full effect not named in the record | Potency, µM (highest dose often 57.9 µM), for inactives: at the top dose signal change, negative = less light | hit rate 1.2% among 410,000 | AID 1159524; active = well fitted falling curve with a large enough effect; inconclusive = small, poorly fitted or top-dose-only effect; inactive = no such curve, though single readings can be large or run the other way; tested in HEK293T cells; further: on the % scale 0 is the no-effect control and ±100 the full control effect; nearly all actives have a fitted effect of over 45% in size; luciferase light after 4 h
* = called active by the depositor; ? = inconclusive; nt = not tested or not shown; & = joins results of further samples; [ ] = dose if it differs, or a comment. Unless noted, the call rests on the fitted dose curve; in most records, active means well fitted rising curve with a large enough effect; inconclusive means small, poorly fitted or top-dose-only effect; inactive means no such curve, though single readings can be large or run the other way. Potency means the concentration at half of the fitted maximal effect.

SMILES	Lassa entry inh	Cruzain noTriton	NS1 function inh	Cruzain Triton	MARV entry inh	SARS PLP yeast	RE007 growth inh	StopGo reporter
O=C(CN1C(=O)NC(Cc2ccccc2)C1=O)Nc1ccccc1OC(F)F (stereo not given)	-6%	nt	nt	nt	5%	0%	-6%	-21%
COc1ccc(OC)c(CCNC(=O)c2cnn(-c3ccccc3)c2-n2cccc2)c1	-4%[46.1 µM]	-3%	nt	-6.4%	?	nt	nt	0%
O=C(CCC(=O)Nc1ccc(Oc2ccccc2)cc1)NCCO	13%	8%	-9%	3.0%	8%	1%	11%	-7%
COc1ccc(Cn2cc(C(=O)c3ccc(C)c(C)c3)c(=O)c3ccccc32)cc1	-29%[46.1 µM]	-3%	nt	-1.5%	-25%[46.1 µM]	nt	nt	-8%
O=C1CC[C@H](O)CCN1[C@H](CSc1ccccc1)Cc1ccccc1	nt	nt	7%	nt	nt	-1%	13%	15%
Oc1ccc(/C=N/N2CCOCC2)c(O)c1O	0%	nt	nt	nt	1%[46.1 µM]	2%	-19%	-5%
Cc1cc(C)c(N2C(=O)CCCC2=O)c(Cl)c1	-11%[46.1 µM]	nt	14%	nt	12%[46.1 µM]	2%	1%	-10%
CCN1CCN(C(=S)NC(=O)c2cccs2)CC1	1%	nt	17%	nt	22%[46.1 µM]	1%	-1%	17%
Cc1cccc(NC(=O)CSc2nnc(N)s2)c1	-1%[46.1 µM]	13%	nt	-1.6%	nt	nt	nt	-3%
COc1cccc(NC(=O)NNC(=O)CN2C(=O)COc3ccccc32)c1	-1%	nt	1%	nt	19%	2%	-7%	-2%
O=C(CSc1nc2ccsc2c(=O)n1CC1CCC(C(=O)O)CC1)NCCc1ccc(Cl)cc1 (stereo not given)	nt	nt	20%	nt	nt	-2%	5%	-2%
CCOC(=O)C(=NCC1CCCO1)NNc1ccccc1Cl (stereo not given)	19%[46.1 µM]	nt	-48%	nt	0%[46.1 µM]	-6%	98%	-12%
COc1ccc(-c2c(C)n([O-])c3c([n+]2=O)CCCC3)cc1	2%	-14%	0%	-0.8%	5%	-1%	-18%	8%
CC(C)(C)c1cnnn1-c1ccc(C(=O)CCl)cc1	?	8%	-38%	5.6%	?	7%	3%	3%
CC(=O)Nc1ccc(S(=O)(=O)NCCc2ccc(S(N)(=O)=O)cc2)cc1	-2%	7%	4%	6.8%	-3%	16%	-6%	14%
C/C(=N\NC(=O)CC1(C)OCCO1)c1cccs1	10%	-18%	15%	0.2%	6%	-1%	-3%	?
CCOc1cc(Cl)c(S(=O)(=O)NCCCN2CCOCC2)cc1Cl	-5%[46.1 µM]	nt	-4%	nt	-1%[46.1 µM]	1%	0%	-11%
CCNC(=O)CSc1nnc(-c2cc(-c3ccc(Cl)cc3)nc3ccccc23)o1	2%	26%	1%	-11%	?	-18%	4%	-9%
COc1ccccc1/C=C/C=N/n1c(-c2ccccn2)n[nH]c1=S	nt	nt	15%	nt	nt	2%	-7%	88%[activator]
O=C1/C(=C/c2cccnc2)SC(=S)N1NS(=O)(=O)c1ccccc1	15%	nt	-2%	nt	?	-1%	13%	-8%
O=C(CN1CCN(S(=O)(=O)c2ccc(Br)s2)CC1)N1CCCCC1	5%	nt	nt	nt	0%	7%	3%	-10%
C1CC(CN2CCOCC2)CN(c2nc3nonc3nc2N2CCSCC2)C1 (stereo not given)	6%[46.1 µM]	nt	7%	nt	-23%[46.1 µM]	1%	7%	-20%
S=c1[nH]nc(Cc2ccccc2)n1-c1ccc(Cl)cc1	-28%	nt	9%	nt	8%[46.1 µM]	1%	1%	-11%
Cc1cc(C)c(NC(=O)COc2nc3ccccc3nc2C)c(C)c1	18%	0%	-7%	-1.2%	-12%	18%	0%	-27%
Cc1nn2c3c(cnc2c1-c1ccc(Cl)cc1)C(=O)CC(c1ccco1)C3 (stereo not given)	?	-29%	-7%	-7.5%	47%	-4%	-1%	25%
(list continues)
SMILES	Lassa entry inh	Cruzain noTriton	NS1 function inh	Cruzain Triton	MARV entry inh	SARS PLP yeast	RE007 growth inh	StopGo reporter
Cc1n[nH]c(C)c1Sc1ccccc1N=Cc1cc([N+](=O)[O-])ccc1O	nt	-17%	-39%	1.9%	3%	4%	nt	nt
O=C(N/N=C(/CC(=O)c1cccs1)C(F)(F)F)c1ccc(O)cc1	?	8%	18%	-6.7%	-29%	21%	-16%	-8%
COc1ccccc1-n1cnnc1SCC(=O)Nc1cccnc1Cl	22%[46.1 µM]	nt	nt	nt	-16%[46.1 µM]	-5%	7%	-4%
O=C(NC(=S)Nc1ccc2oc(-c3ccncc3)nc2c1)c1ccccc1F	6%[46.1 µM]	nt	7%	nt	-2%[46.1 µM]	-1%	1%	-6%
N#CC1=C(N)Oc2n[nH]c(-c3ccccc3)c2C12C(=O)Nc1ccccc12 (stereo not given)	0%	-7%	2%	6.2%	-10%	3%	9%	-16%
Cc1nn(-c2ccccc2)c(Cl)c1/C=N/N1CCN(c2ccccn2)CC1	33%[46.1 µM]	nt	1%	nt	12%[46.1 µM]	3%	-2%	-24%
Cc1cc(=O)[nH]c(SCC(=O)NCC2CCCO2)n1 (stereo not given)	nt	nt	5%	nt	nt	0%	-9%	-6%
Clc1cncc(Cl)c1N/N=C/c1ccccc1	29%	nt	-58%	nt	?	-4%	?	0%
Cc1c(CC(=O)N2CCCCC2)c(=O)oc2cc3occ(C(C)(C)C)c3cc12	0%[46.1 µM]	0%	nt	-1.3%	9%[46.1 µM]	nt	nt	10%
CC(C)(C)OC(=O)NCCCCC1=CC2=CC(=O)C(C)(O)C(=O)C2=CO1 (stereo not given)	nt	28%	nt	-1.5%	nt	nt	-4%	-5%
Cc1ccc(C(=O)NC(=S)Nc2ccc(N3CCOCC3)cc2)cc1C	-21%	nt	8%	nt	?	-1%	-6%	-29%
Cc1occc1C(=O)Nc1nnc(-c2ccncc2)s1	?	-3%	-8%	4.1%	15%	-3%	13%	38%[activator]
COc1ccc(C2C=C(c3ccccc3)Nc3nc(NS(=O)(=O)c4ccc(C)cc4)nn32)cc1 (stereo not given)	6%[46.1 µM]	2%	nt	-4.4%	5%[46.1 µM]	nt	nt	-4%
O=C(O)CCCNS(=O)(=O)c1ccc2ccccc2c1	-1%	-2%	2%	-0.9%	3%[46.1 µM]	1%	4%	-4%
C/C(=N\NC(=O)c1cc(C(C)C)[nH]n1)c1ccncc1	0%	nt	-17%	nt	?	0%	13%	45%[activator]
Cc1ccc(-c2cc(C(=O)Nc3cnn(C45CC6CC(CC(C6)C4)C5)c3)no2)cc1	-20%	13µM*	4%	4.9%	-14%	4%	12%	-19%
Cc1cc(C)cc(N2C(=O)CSC2c2cccs2)c1 (stereo not given)	3%	4%	6%	1.3%	23%[46.1 µM]	-4%	4%	?
CC1(C)NC(=O)N(CC(=O)OCC(=O)Nc2cccc(S(N)(=O)=O)c2)C1=O	nt	nt	3%	nt	nt	0%	-4%	13%
O=C(NCC(=O)N1CCN(C(c2ccccc2)c2ccccc2)CC1)c1ccc(Br)o1	?	nt	4%	nt	?	2%	-3%	-7%
O=C(COc1ccc(C2SCCS2)cc1)NNC(=O)C(Cl)Cl	-2%	nt	16%	nt	?	4%	19%	42%[activator]
CC1CCCC(C)N1C(=O)c1cc(-c2ccc3c(c2)OCO3)on1 (stereo not given)	-27%	nt	-2%	nt	-30%[46.1 µM]	-3%	12%	14%
Cc1cccc(Nc2nc(N)nc(CN3CCN(c4ccc(F)cc4)CC3)n2)c1	2%	0%	-14%	0.0%	-21%	1%	3%	?
O=C(NCc1ccccc1)C(=O)Nc1nccs1	nt	nt	6%	nt	?	0%	9%	0%
CCN(CC(=O)NCc1cccs1)C(=O)c1cccc(S(=O)(=O)Nc2ccc(OC)cc2)c1	25%	nt	nt	nt	?	nt	4%	27%
CCOc1ccc(CCNC(=O)COC(=O)CCc2cc(OC)c(OC)c(OC)c2)cc1OCC	-2%	nt	nt	nt	10%	-3%	-17%	-11%
Next part
SMILES	Lassa entry inh	Cruzain noTriton	NS1 function inh	Cruzain Triton	MARV entry inh	SARS PLP yeast	RE007 growth inh	StopGo reporter
O=c1cc(O)nc(SCc2ccccc2)n1-c1ccccc1	20%&13%	-10%&-18%	?	-3.1%&-8.5%	2%&-2%	-1%&4%	3%&5%	-5%&-12%
CC(C)N(CCNS(=O)(=O)c1ccc(Cl)cc1)C(C)C	-4%	1%	1%	2.3%	2%	-1%	7%[3.69 µM]	14%
COc1ccccc1NC(=O)c1ccc2nc(C)sc2c1	-7%[46.1 µM]	nt	-20%	nt	-11%[46.1 µM]	3%	-4%	34%[activator]
CSCCC(NC(=O)c1cccc(S(=O)(=O)N2CCOCC2)c1)c1nc2ccccc2[nH]1 (stereo not given)	15%	nt	nt	nt	-22%	-3%	24%	3%
COc1ccc(CCNc2nccn(-c3ccc(C)c(C)c3)c2=O)cc1OC	?	-4%	nt	-5.5%	nt	nt	nt	?
COc1ccc(OCCSc2nnc(C)n2-c2ccccc2)cc1	9.2µM*	21%	0%	-3.6%	?	6%	-8%	-16%
CN1CCN(c2ccc(NC(=O)CSc3nnnn3-c3ccccc3Cl)cc2)CC1	nt	nt	8%	nt	nt	-1%	-1%	-17%
O=C(O)c1ccc(/C=C/c2nc3ccccc3c(=O)n2-c2ccc(Br)cc2)cc1	?	nt	-108%	nt	?	0%	6%	-7%
O=C(Cn1cnc([N+](=O)[O-])c1)NCc1ccc(F)cc1	-10%	10%	3%	5.1%	-25%	-4%	-1%	-5%
Cc1onc(-c2c(Cl)cccc2Cl)c1/C(N)=N/OC(=O)N(C)C	12%[46.1 µM]	nt	2%	nt	17%[46.1 µM]	0%	11%	1%
Cc1cc(NC(=O)CN2CCc3ccccc3C2)nc2c1c(=O)oc1ccccc12	nt	nt	-33%	nt	nt	-3%	-14%	2%
S=C(Nc1ccccc1Cl)N(CCN1CCCCC1)Cc1ccco1	-1%	-16%	7%	-1.8%	-25%	4%	-13%	-7%
CCOc1ccc(OCC(=O)Nc2ccccc2N2CCCC2)cc1	?	nt	nt	nt	-28%	-7%	-4%	?
COCCN(CCOC)C(=O)C1CCN(c2ccc(S(=O)(=O)N3CCOCC3)cc2[N+](=O)[O-])CC1	-5%	nt	nt	nt	nt	2%	-19%	1%
Cc1cccc(C(C)C)c1NC(=O)c1ccc(COc2ccc3c(C)cc(=O)oc3c2)cc1	?	?	24%	-3.3%	-19%[46.1 µM]	9%	5%	?
N=c1oc2ccc(Br)cc2cc1C(=O)NC1CCCCCC1	nt	nt	6%	nt	nt	-1%	0%	0%
